Vaccinia inh – blocks a specific stage of Vaccinia orthopoxvirus infection; Vaccinia-infected cells, mCherry/Venus stage reporter fluorescence; hits give low values; some inactives read as strong as hits; activity change (mCherry), % (test concentration not listed); 89,000 compounds, 0.01% hits;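 active = mCherry past -33% and 40 or more points under the early reporter, replicates agreeing; inconclusive = past -33% without that gap or agreement; tested in A549 cells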;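 also: scaled between vehicle wells and reference inhibitor wells; 23 nL library stock went into each well; one replicate is shown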
Vaccinia inh Venus – recorded beside Vaccinia inh, whose call it bears; activity change (Venus), %; measured here: Venus reporter, other viral stage;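 negative = less Venus signal; first of two replicates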
Active calls of the source: *; u = inconclusive; x = not tested or not shown; & = joins results of further samples. A portion of the library; count on the stated rates, not on these rows.

SMILES	Vaccinia inh	Vaccinia inh Venus
C=CCOC(=O)[C@H]1[C@@H]2C(=O)O[C@@H](c3ccccc3)[C@@H](c3ccccc3)N2[C@@H](c2ccc(OCCOC(=O)[C@H]3C[C@H]4C(=O)N[C@@H](CC(C)C)C(=O)N4[C@H]3c3cccc(OCCO)c3)cc2)[C@]12C(=O)Nc1ccccc12	2.1	-0.9
CN(C)CC(=O)Nc1ccc2c(c1)[C@@H]1C[C@@H](CC(=O)NCc3ccc(Cl)cc3)O[C@H](CO)[C@@H]1O2	14.4	-2.1
CCCNC(=O)N(C)C[C@@H]1Oc2cc(C#C[C@H](C)O)ccc2S(=O)(=O)N([C@H](C)CO)C[C@@H]1C	13.8	4.6
CCCC(=O)N1CCC2(CC1)CN(Cc1nccs1)[C@H](CO)c1[nH]c3cc(OC)ccc3c12	11.7	16.2
O=C(C[C@H]1C[C@@H]2c3cc(NC(=O)NC4CCCC4)ccc3O[C@@H]2[C@@H](CO)O1)NCc1ccncc1	-5.0	-0.7
O=C(C[C@H]1CC[C@H]2[C@@H](COC[C@H](O)CN2S(=O)(=O)c2cccc(F)c2)O1)NCCCN1CCOCC1	9.6	9.0
COCC#Cc1ccc2c(c1)O[C@H](CN(C)C(C)=O)[C@@H](C)CN([C@H](C)CO)S2(=O)=O	19.4	8.1
CNC[C@@H]1Oc2c(NS(=O)(=O)c3ccccc3)cccc2C(=O)N([C@H](C)CO)C[C@@H]1C	7.2	-0.3
COc1cccc(S(=O)(=O)N[C@@H]2C=C[C@H](CC(=O)NCc3ccccc3)O[C@H]2CO)c1	3.3	-1.8
C[C@H]1CN([C@@H](C)CO)C(=O)c2cccc(NS(=O)(=O)c3cn(C)cn3)c2O[C@H]1CN(C)C(=O)NC1CCCCC1	27.5	14.9
CCS(=O)(=O)N1CCC2(CC1)CN[C@@H](CO)c1[nH]c3cc(OC)ccc3c12	1.9	6.9
COc1ccc(S(=O)(=O)Nc2ccc3c(c2)C(=O)N([C@H](C)CO)C[C@H](C)[C@@H](CN(C)C)OCCCC[C@@H](C)O3)cc1	6.5	6.6
C[C@H](CO)N1C[C@H](C)[C@H](CN(C)CC2CCCCC2)Oc2c(NC(=O)Nc3cccc4ccccc34)cccc2C1=O	-14.9	-11.0
Cc1cccc(-c2ccc([C@H]3[C@@H](CO)N4CCCCN(Cc5cccnc5)C[C@@H]34)cc2)c1	-8.5	-13.8
O=C(NCC[C@H]1CC[C@H](NS(=O)(=O)c2cccc(F)c2)[C@@H](CO)O1)C1CCCCC1	14.4	6.3
CC(=O)N1[C@@H]2c3ccc(-c4cccc(F)c4)c(=O)n3C[C@H]1[C@H](CO)[C@H]2C(=O)NCC1CC1	10.5	4.9
C[C@H](CO)N1C[C@H](C)[C@@H](CN(C)C(=O)NC2CCCCC2)OCCCC[C@H](C)Oc2ccc(N(C)C)cc2C1=O	-8.2	-8.0
C[C@H](CO)N1C[C@H](C)[C@H](CN(C)Cc2ccc(C(=O)O)cc2)Oc2ccc(NC(=O)NC3CCCCC3)cc2CC1=O	27.6	11.3
C[C@@H]1CN([C@@H](C)CO)C(=O)c2cccc(NC(=O)C3CCOCC3)c2O[C@@H]1CN(C)Cc1ccc(C(F)(F)F)cc1	-0.9	-4.0
Cc1ccccc1S(=O)(=O)N1CC(=O)N2[C@H](C1)[C@H](c1ccc(C#CC3CC3)cc1)[C@@H]2CO	-12.8	-13.0
O=C(Nc1ccc(Cl)cc1)N[C@H]1CC[C@H](CCn2cc(C3(O)CCCC3)nn2)O[C@H]1CO	-7.4	-0.4
COc1ccccc1NC(=O)N1[C@@H]2CNC[C@H]1C2c1ccc(-c2ccccc2OC)cc1 (stereo partly drawn)	-0.7&14.9	7.8&19.6
C[C@@H]1CN([C@@H](C)CO)S(=O)(=O)c2ccc(-c3cccc(C#N)c3)cc2O[C@H]1CN(C)C	24.6	10.0
COCCNC(=O)C[C@H]1CC[C@@H]2[C@H](COc3ccc(NC(=O)c4cnccn4)cc3C(=O)N2C)O1	12.9	2.4
C[C@@H]1CN([C@H](C)CO)C(=O)c2c(c3ccccc3n2C)-c2ccccc2CO[C@@H]1CN(C)Cc1ccncc1	u	x
CN(C)C(=O)C[C@@H]1CC[C@@H]2[C@@H](COc3ccc(NC(=O)C4CC4)cc3C(=O)N2C)O1	16.0	14.3
CS(=O)(=O)N1CCCCN2[C@H](CO)[C@H](c3ccc(C#Cc4ccccn4)cc3)[C@@H]2C1	41.6	15.0
COc1cccc(S(=O)(=O)N(C)C[C@H]2Oc3ncc(C#CCC(C)C)cc3C(=O)N([C@H](C)CO)C[C@@H]2C)c1	-26.5	-21.5
COc1ccc(NC(=O)Nc2ccc3c(c2)C(=O)N([C@H](C)CO)C[C@H](C)[C@@H](CN(C)C(=O)Nc2c(C)noc2C)OCCCC[C@H](C)O3)cc1	16.1	11.7
C[C@@H]1CN([C@@H](C)CO)C(=O)c2cccc(NS(C)(=O)=O)c2O[C@@H]1CN(C)Cc1ccccc1	24.1	13.6
C[C@H](CO)N1C[C@H](C)[C@H](CN(C)S(C)(=O)=O)Oc2ccc(N(C)C)cc2CC1=O	9.6	8.9
CCC(=O)N1C[C@H](C)[C@@H](OC)CN(C)C(=O)c2ccc(NC(=O)c3cnccn3)cc2OC[C@H]1C	12.2	11.6
COc1ccc(NC(=O)N(C)C[C@H]2Oc3ccc(NC(=O)C4CCCCC4)cc3C(=O)N([C@H](C)CO)C[C@H]2C)cc1	8.7	8.9
COCC(=O)N1C[C@@H](C)[C@@H](OC)CN(C)C(=O)c2cc(NC(=O)c3ccc(F)cc3)ccc2OC[C@H]1C	5.5	1.0
O=C(C[C@H]1C[C@H]2c3cc(NC(=O)Nc4ccccc4F)ccc3O[C@H]2[C@@H](CO)O1)NCc1ccc2c(c1)OCO2	-5.7	-3.1
CC(C)CC#Cc1cnc2c(c1)C(=O)N([C@H](C)CO)C[C@@H](C)[C@H](CN(C)Cc1ccccn1)O2	5.4	-2.6
C[C@@H]1CN([C@@H](C)CO)C(=O)c2cccc(NS(=O)(=O)c3cccs3)c2O[C@H]1CN(C)C(=O)NC1CCCCC1	0.9	-13.5
C[C@@H]1CCCCO[C@H](CN(C)C(=O)C2CCCCC2)[C@H](C)CN([C@@H](C)CO)C(=O)c2cc(NC(=O)c3ccccc3)ccc2O1	u	x
O=C(CC1CC1)N1CC(=O)N2[C@H](CO)[C@@H](c3ccc(-c4ccccc4)cc3)[C@@H]2C1	-15.7	-21.6
COc1ccc(C(=O)Nc2ccc3c(c2)C(=O)N(C)C[C@@H](OC)[C@H](C)CN(C(=O)C2CC2)[C@H](C)CO3)cc1	-11.5	7.8
C[C@H]1CN([C@@H](C)CO)C(=O)CCCn2nncc2CO[C@H]1CN(C)S(=O)(=O)c1ccccc1C#N	21.1	24.8
C[C@H]1CN([C@@H](C)CO)C(=O)c2cc(-c3ccc(F)cc3)cnc2O[C@H]1CN(C)CC1CCCC1	-23.4	-19.6
CCCC(=O)Nc1ccc2c(c1)OC[C@@H](C)N(S(=O)(=O)c1cn(C)cn1)C[C@H](C)[C@@H](OC)CN(C)C2=O	-2.0	-10.1
O=S(=O)(N[C@H]1CC[C@H](CCn2cc(-c3cccnc3)nn2)O[C@H]1CO)c1ccccc1	11.2	6.0
C[C@@H]1CN([C@@H](C)CO)S(=O)(=O)c2ccc(C#CC3CCCC3)cc2O[C@H]1CN(C)C(=O)C1CC1	-16.3	-21.7
C[C@H](CO)N1C[C@H](C)[C@H](CN(C)C(=O)Nc2cccc3ccccc23)OCCCC[C@H](C)Oc2ccc(NC(=O)C3CCCCC3)cc2C1=O	11.7	12.8
CO[C@H]1CN(C)C(=O)c2ccc(NC(=O)NC(C)C)cc2OC[C@@H](C)N(CC2CC2)C[C@H]1C	9.4	15.2
N#C[C@@H]1[C@@H](c2ccc(C#CC3(O)CCCC3)cc2)[C@@H](CO)N1C(=O)C1CCC1	5.8	-0.9
O=C(C1CCCCC1)N1CC(=O)N2[C@H](C1)[C@H](c1ccc(C#Cc3cccc(F)c3)cc1)[C@@H]2CO	u	x
CCC(=O)N(C)C[C@H]1Oc2cc(C#Cc3ccccc3)ccc2S(=O)(=O)N([C@@H](C)CO)C[C@@H]1C	u	x

(listing goes on)
SMILES	Vaccinia inh	Vaccinia inh Venus
CCC(=O)N(C)C[C@H]1Oc2cc(C#CC(C)C)ccc2S(=O)(=O)N([C@@H](C)CO)C[C@@H]1C	-5.9	-9.9
CCNC(=O)C[C@@H]1CC[C@@H]2[C@H](COC[C@H](O)CN2C(=O)c2cc(Cl)cc(Cl)c2)O1	17.9	2.9
Cc1ccc(S(=O)(=O)N[C@H]2CC[C@@H](CCNC(=O)CN3CCOCC3)O[C@H]2CO)cc1	9.3	3.9
C[C@H]1CCCCO[C@@H](CN(C)C(=O)Nc2ccc3c(c2)OCO3)[C@@H](C)CN([C@@H](C)CO)C(=O)c2cc(NC(=O)c3ccncc3)ccc2O1	22.6	7.4
C[C@@H]1CN([C@H](C)CO)S(=O)(=O)c2ccc(C#Cc3ccccc3)cc2O[C@@H]1CN(C)C(=O)Nc1ccc2c(c1)OCO2	-20.5	-13.1
O=C(C[C@@H]1CC[C@@H]2NC[C@H](O)COC[C@H]2O1)NCc1ccc(Oc2ccccc2)cc1	3.5	-1.0
C[C@@H]1CCCCO[C@@H](CN(C)Cc2ccc(C(=O)O)cc2)[C@H](C)CN([C@H](C)CO)C(=O)c2cc(NS(=O)(=O)c3ccc(Cl)cc3)ccc2O1	27.3	11.2
C[C@H]1CN([C@@H](C)CO)C(=O)Cc2cc(NS(C)(=O)=O)ccc2O[C@@H]1CN(C)C(=O)Nc1ccc(F)cc1	28.7	19.9
CC(C)NC(=O)Nc1ccc2c(c1)C(=O)N([C@@H](C)CO)C[C@@H](C)[C@H](CN(C)C(=O)Nc1ccc3c(c1)OCO3)O2	14.3	6.4
C[C@H]1CN([C@@H](C)CO)S(=O)(=O)c2ccc(/C=C/c3ccccc3)cc2O[C@H]1CN(C)Cc1cncnc1	-24.7	-19.1

Ordered by molecular weight (ascending): 5 of the compounds above.
SMILES	Vaccinia inh	Vaccinia inh Venus
CCNC(=O)C[C@@H]1CC[C@@H]2[C@H](COC[C@H](O)CN2C(=O)c2cc(Cl)cc(Cl)c2)O1	17.9	2.9
CCC(=O)N(C)C[C@H]1Oc2cc(C#CC(C)C)ccc2S(=O)(=O)N([C@@H](C)CO)C[C@@H]1C	-5.9	-9.9
Cc1ccc(S(=O)(=O)N[C@H]2CC[C@@H](CCNC(=O)CN3CCOCC3)O[C@H]2CO)cc1	9.3	3.9
C[C@H]1CN([C@@H](C)CO)C(=O)Cc2cc(NS(C)(=O)=O)ccc2O[C@@H]1CN(C)C(=O)Nc1ccc(F)cc1	28.7	19.9
CC(C)NC(=O)Nc1ccc2c(c1)C(=O)N([C@@H](C)CO)C[C@@H](C)[C@H](CN(C)C(=O)Nc1ccc3c(c1)OCO3)O2	14.3	6.4

Next part.
SMILES	Vaccinia inh	Vaccinia inh Venus
O=C(C[C@H]1C[C@@H]2c3cc(NC(=O)C4CCC4)ccc3O[C@@H]2[C@H](CO)O1)NCc1ccc(-c2ccccc2)cc1	12.3	4.1
CC(=O)Nc1ccc2c(c1)C(=O)N(C)[C@H]1CC[C@H](CC(=O)Nc3cn(C)nc3C)O[C@H]1CO2	3.3	9.2
O=C(NCC1CC1)[C@@H]1[C@@H](CO)[C@@H]2Cn3c(cccc3=O)[C@@H]2N1CCC(F)(F)F	12.8	16.8
COc1ccc(NC(=O)N(C)C[C@@H]2Oc3ccc(NC(=O)Nc4ccc5c(c4)OCO5)cc3C(=O)N([C@@H](C)CO)C[C@@H]2C)cc1	3.4	-6.3
COc1ccccc1C(=O)Nc1ccc2c(c1)OC[C@@H](C)N(C)C[C@@H](C)[C@H](OC)CN(C)C2=O	-0.6	6.9
C[C@H]1CN([C@@H](C)CO)C(=O)Cc2cc(NC(=O)Cc3cn(C)c4ccccc34)ccc2O[C@H]1CN(C)Cc1ccc(Cl)c(Cl)c1	-21.9	-7.1
COc1ccc2c3c(n(C)c2c1)[C@@H](CO)N(C(=O)CN(C)C)CC31CCN(Cc2nccs2)CC1	6.3	27.5
CN1c2ccc(Br)cc2[C@H]2[C@H](CCN2C(=O)C2CC2)[C@H]1CO	-3.7	1.5
O=C(C[C@@H]1CC[C@@H](NC(=O)CN2CCOCC2)[C@@H](CO)O1)NCCc1ccccc1	-0.7	-2.6
CCCNC(=O)[C@H]1[C@H](CO)[C@H]2Cn3c(cccc3=O)[C@@H]1N2Cc1cccc(Cl)c1	6.2	3.9
C[C@@H]1CN([C@@H](C)CO)S(=O)(=O)c2ccc(C#Cc3cccc(F)c3)cc2O[C@H]1CN(C)S(=O)(=O)c1cn(C)cn1	u	x
COc1ccc(-c2ccc3c(c2)[C@@H]2[C@@H](CCN2Cc2ccccc2F)[C@H](CO)N3)cc1	-11.0	21.4
C[C@@H]1CN([C@@H](C)CO)C(=O)c2cc(NC(=O)Nc3ccc4c(c3)OCO4)ccc2O[C@@H]1CN(C)Cc1ccc(Cl)c(Cl)c1	u	x
COc1ccc(CN(C)C[C@@H]2Oc3ccc(NC(=O)Nc4ccccc4)cc3CC(=O)N([C@H](C)CO)C[C@@H]2C)cc1	-11.4	-5.9
C[C@H](CO)N1C[C@H](C)[C@H](CN(C)C(=O)Nc2cccc3ccccc23)OCCCC[C@H](C)Oc2ccc(NS(=O)(=O)c3ccc(F)cc3)cc2C1=O	33.8	26.7
C=CCNC(=O)[C@@H]1[C@H]2C(=O)O[C@H](c3ccccc3)[C@H](c3ccccc3)N2[C@H](c2ccc(O)cc2)[C@@]12C(=O)Nc1ccc(C#CC3=CCCCC3)cc12	7.7	1.6
CCS(=O)(=O)N1CCCCN2[C@H](CO)[C@H](c3ccc(-c4ccc(C#N)cc4)cc3)[C@@H]2C1	8.1	1.2
CN1c2ccc(Br)cc2[C@H]2[C@H](CCN2C(=O)Cc2ccccc2)[C@H]1CO	-32.1	-19.6

Source: PubChem BioAssay
